Source: PubChem (ICCB-Longwood Screening Facility, Harvard Medical School)
Sa growth inh: S. aureus growth inhibition at 42 and 30 °C, primary screen, LtaS inhibitor project, RN4220, two temperatures | OD600, 20 h, 42 °C; hits give low values | relative growth, % (concentration not given with the values) | hit rate 0.53% among 170,000 | AID 720641, 2013;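 active = growth at 42 °C up to 50% and 20 or more points under that at 30 °C, or under 10% at both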;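 note: 300 nL library stock went into each well; scaled to the means of positive and negative controls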
HCMV NEC inh: inhibitors of HCMV UL50-UL53 interaction, biochemical, HTRF; normalized percent inhibition; hit rate 0.15% among 190,000; inhibition, % (test concentration not listed); HCMV UL50-UL53 nuclear egress complex (human cytomegalovirus); AID 1918969, 2023;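 active = both replicates at 50% or more, plus weaker picks with an unusually low signal ratio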;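 note: stock transfer was 100 nL into about 20 µL; 0% = negative control wells and 100% = wells with untagged competitor protein; inactives centre near -12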
GIV Gai3 FP: inhibitors of GIV peptide binding to Galpha-i3, primary screen, biochemical, fluorescence polarization, FITC-GIV GBA peptide, rat Galphai3; percent of control (FP), % (no concentration beside the values); Guanine nucleotide-binding protein G(i) subunit alpha-3 (Rattus norvegicus), P08753; 90 min; hits give low values; scaled: aluminum fluoride 0%, vehicle 100%; hit rate 0.42% among 210,000;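 active = replicate mean at 85% of control or lower, very high polarization wells dropped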;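 note: wells of about 15 µL received 100 nL stock; the first replicate is given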
Target sequence (P08753 whole entry, looked up): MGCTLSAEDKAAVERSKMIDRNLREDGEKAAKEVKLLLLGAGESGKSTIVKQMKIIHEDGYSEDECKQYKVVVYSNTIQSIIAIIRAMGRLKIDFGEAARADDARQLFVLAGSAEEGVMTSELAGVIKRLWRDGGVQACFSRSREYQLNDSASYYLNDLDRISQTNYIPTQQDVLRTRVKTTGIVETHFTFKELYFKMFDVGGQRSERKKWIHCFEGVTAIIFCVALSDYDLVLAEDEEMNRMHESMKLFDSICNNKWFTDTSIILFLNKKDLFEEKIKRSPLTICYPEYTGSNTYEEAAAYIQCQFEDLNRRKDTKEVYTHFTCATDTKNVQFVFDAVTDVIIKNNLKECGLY
Sa growth inh second temp: recorded beside Sa growth inh, whose call it bears; relative growth, %; measured here: growth at 30 °C;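 optical density after 20 h as mean of two plates; 100% = untreated growth and lower means inhibition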
* = called active by the depositor; x = no result given; & = joins results of further samples.

SMILES	Sa growth inh	Sa growth inh second temp	HCMV NEC inh	GIV Gai3 FP
COC(=O)C1=C(C)Nc2nc(SC)[nH]c(=O)c2C1c1ccccc1 (stereo not given)	104	80	0	101
COC(=O)c1ccc2c(=O)[nH]c(COC(=O)C3CC4CCCC(C3)C4=O)nc2c1 (stereo not given)	113	87	-27	x
COc1ccc(C2C=C(c3ccccc3)Nc3nc(N4C(=O)CCC4=O)nn32)cc1 (stereo not given)	x	x	-38	97
O/N=C1/C2C3CC4C2/C(=N/O)C2C1C3C42 (stereo not given)	94	93	-26	x
C=Cc1ccc(Cn2c(C(=O)O)c(CNCCc3ccc(SC)cc3)c3ccccc32)cc1	88	47	x	103
COC(=O)CNC(=O)c1cn(-c2ccccc2)nc1-c1ccc(C)cc1	98	84	-22	x
O=S(=O)(c1cccc2nsnc12)N1CCc2ccccc21	86	93	-14	97
Cc1n[nH]c(C)c1S(=O)(=O)N1CCC(C(=O)OCc2ccc(C(C)(C)C)cc2)CC1	107	70	-23	x
O=C(O)CC(NC(=O)Cc1ccccc1)C(F)(F)F (stereo not given)	102	89	-15	x
COc1cccc(CNC(=O)CN2C(=O)CSc3ccc(S(=O)(=O)N(C)C)cc32)c1	107	86	x	104
Cc1cc(C)cc(-n2c(SCC(=O)N3CCc4ccccc43)nc3c([nH]c4ccccc43)c2=O)c1	82	89	x	98
CCOC(=O)c1cc2c(C)nccn2c1	107	93	-16	109

Complete entries as entered above. Values in the order: Sa growth inh | Sa growth inh second temp | HCMV NEC inh | GIV Gai3 FP
Listed for `COC(=O)c1ccc2c(=O)[nH]c(COC(=O)C3CC4CCCC(C3)C4=O)nc2c1` (stereo not given) = 113 | 87 | -27 | x
Listed for `O=C(O)CC(NC(=O)Cc1ccccc1)C(F)(F)F` (stereo not given) = 102 | 89 | -15 | x
Listed for `Cc1n[nH]c(C)c1S(=O)(=O)N1CCC(C(=O)OCc2ccc(C(C)(C)C)cc2)CC1` = 107 | 70 | -23 | x
Listed for `C=Cc1ccc(Cn2c(C(=O)O)c(CNCCc3ccc(SC)cc3)c3ccccc32)cc1` = 88 | 47 | x | 103
Listed for `Cc1cc(C)cc(-n2c(SCC(=O)N3CCc4ccccc43)nc3c([nH]c4ccccc43)c2=O)c1` = 82 | 89 | x | 98

Later entries:
SMILES	Sa growth inh	Sa growth inh second temp	HCMV NEC inh	GIV Gai3 FP
CCn1c(NCc2ccccc2)nc2ccccc21	97	58	10	109
CCOC(=O)Cn1c(=NC(=O)c2ccco2)sc2cccc(F)c21	102	96	-13	105
Cc1ccc(-n2nc(C(=O)NCCc3cccc(C)c3)c3c4ccccc4n(C)c3c2=O)cc1	104	101	2	103
CCCCNC(=O)c1cc(-c2cccs2)on1	91	83	-40	102
O=C(O)CCC(=O)N1N=C(c2c(-c3ccccc3)c3cc(Cl)ccc3[nH]c2=O)CC1c1ccc(Br)cc1 (stereo not given)	x	x	7	103
CCC1Cn2c(C(=O)NCCCN3CCOCC3)cc3cccc(c32)O1 (stereo not given)	x	x	-16	105
CN(C)c1ccc(NS(=O)(=O)c2ccc(Br)cc2)cc1C(=O)O	x	x	-10	95
CCCCCC(=O)N(c1ccc(OCC)cc1)S(=O)(=O)c1ccc2c(c1)n(C)c(=O)n2C	101	90	15	104
COC(=O)c1sc(SC)nc1N	110	76	-19	105
CCN(CC)C(=O)N1CCC(C(=O)OC)CC1	82	103	-19	109
O=C(CCc1ccccc1)Nc1ccc2[nH]c(=O)oc2c1	116	94	-19	104
CCc1cccc(C)c1NC(=O)CCC(=O)N1CCOc2ccccc21	103	88	x	101
Cc1nn(-c2ccc(N3CCCC3)nn2)c(C)c1CCC(=O)N1CCN(c2ccc(F)cc2)CC1	110	100	x	107
Cc1cccc(C)c1Nc1ncnc2ccc(Br)cc12	x	x	16	104
COc1ccc(-c2nnc(SCC(=O)NCCC(C)C)nc2-c2ccc(OC)c(OC)c2)cc1OC	85	85	x	101
CC(Oc1ccc(Cl)cc1Cl)C(=O)N(C)C (stereo not given)	96	99	-4	103
O=C(Cn1sc2ccccc2c1=O)N1CCN(c2ccccc2)CC1	88	80	x	99
O=C(O)c1cccc(Nc2c(-c3cccc(Br)c3)nc3cnccn23)c1	x	x	-63	104
O=C(CN1N=C(c2ccc(Cl)cc2)CCC1=O)NCc1ccc(F)cc1	91	82	x	99
CCOC(=O)c1c(C)noc1-c1csc(-c2cccc(C(F)(F)F)c2)n1	99	92	-31	101
CCOc1ccc(NC(=O)c2oc3ccccc3c2NC(=O)Cc2cccc(C)c2)cc1	94	88	-35	102
C=C1c2ccccc2C(=O)N1c1cc(Cl)cc(Cl)c1	102	94	-8	100
C=CCOC(=O)C1=C(C)N(CC)C(=O)NC1c1cc(Br)c(O)c(OC)c1 (stereo not given)	x	x	-5	99
CN(C)C(=O)CCSc1nc2cc(Cl)ccc2o1	98	71	-15	99

Reformatted: two of the compounds above
structure: O=C(O)c1cccc(Nc2c(-c3cccc(Br)c3)nc3cnccn23)c1
- Sa growth inh: x
- Sa growth inh second temp: x
- HCMV NEC inh: -63
- GIV Gai3 FP: 104

structure: Cc1cccc(C)c1Nc1ncnc2ccc(Br)cc12
- Sa growth inh: x
- Sa growth inh second temp: x
- HCMV NEC inh: 16
- GIV Gai3 FP: 104

Additional records follow:
SMILES	Sa growth inh	Sa growth inh second temp	HCMV NEC inh	GIV Gai3 FP
Cn1c(SCC(=O)N2CCCc3ccccc32)ncc(C(=O)Nc2ccc(Cl)cc2)c1=O	95	94	x	100
Cc1ccccc1NC(=O)N1CCN(Cc2ccccc2)CC1	98	101	-21	93
Cc1cc(C)c(Nc2nn3c(=O)c4cc5c(cc4nc3s2)OCO5)c(C)c1	96	97	-7	102
CN(C(=O)C1CC(c2ccccc2F)=NO1)c1ccccc1 (stereo not given)	86	89	x	103
CCCC1CC(c2csc(C)n2)CCO1 (stereo not given)	116	92	-23	x
CCCn1c(SCC(=O)Nc2ccccc2)n[nH]c1=O	101	92	-20	x
CCCCOc1cccc(C(=O)N(Cc2ccc(Br)o2)C2CCS(=O)(=O)C2)c1 (stereo not given)	93	83	-20	96
CCC(Cn1nnc2ccccc2c1=O)NC(=O)Nc1cccc(C)c1C (stereo not given)	107	90	-9	98
Cc1ccc(Cn2c(SCC(O)CO)nc3c2c(=O)[nH]c(=O)n3C)cc1 (stereo not given)	97	91	-12	104
COc1ccc(CCNC(=O)C2CCN(c3nc4ccccc4nc3C(F)(F)F)CC2)cc1OC	97	85	x	99
COc1ccc(C(=O)N[C@H]2COC(C)(C)O[C@H]2c2ccccc2)cc1	104	89	-24	103
Cc1ccc(Cn2c(=O)n(-c3ccccc3)c(=O)c3ccc(C(=O)NCc4ccco4)cc32)cc1	108	80	-14	108
O=S(=O)(c1ccc2nnn(O)c2c1)N1CCCCC1	91	89	-32	x
Cc1cc(OCC(N)=O)c(C(C)C)cc1Cl	82	102	10	x
CC(C)C(=O)c1cn(CC(=O)NCC2CCCO2)c2ccccc12 (stereo not given)	96	83	18	98
O=C(Oc1cccc2cccnc12)c1ccccc1F	0.8*	0.4*	-13	99
O=C(c1ccccc1Cl)N1CCN(c2nc3cc(Br)ccc3n3cccc23)CC1	x	x	-3	99
CC(C)(C)c1nc2scc(-c3ccc(Cl)cc3)n2n1	100	90	-26	105
N#C/C(=C\c1ccc(-c2cccc(Cl)c2)o1)C(N)=O	107	99	-32	91
O=S(=O)(c1ccc(F)cc1)N1CCCC1c1ccc(Cl)cc1 (stereo not given)	x	x	-6	104
O=C(Nc1cc(-c2nc3cc(Cl)ccc3o2)ccc1Cl)c1cc2ccccc2o1	110	93	10	109
Brc1ccccc1OCc1nc2ccccc2[nH]1	103	86	-3	x
Cc1ccc2c(c1)N(C(=O)CCC(=O)NCc1ccccc1F)CC(C)O2 (stereo not given)	102	88	9	101
Nn1c(SCC(=O)Nc2ccccc2Oc2ccccc2)nnc1C1CC1	102	83	-8	x
Cc1ccc(N2CCN(c3nc4ccc(C)cc4n4nnnc34)CC2)c(C)c1	116	93	x	106
Cc1cccc(N=Cc2c(C)c(C#N)c3[nH]c4ccccc4n3c2=O)c1C	97	88	x	100
CCc1cccc(C)c1NC(=O)Cn1c(=O)n(-c2cccc(C)c2)c(=O)c2c1c1cc(C)ccc1n2C	117	91	x	106
CCCC(O)c1nc2ccccc2n1CCOc1ccccc1C (stereo not given)	x	x	-7	99
Cc1ccc(C(=O)n2nc(C)c(S(=O)(=O)N3CCOCC3)c2C)cc1C	89	91	x	104
CCOC(=O)c1cc(-c2ccc(F)cc2)n(CC(=O)NC2CCCCC2)c1C	123	88	x	102
CC(C)COC(=O)c1ccc(O)cc1	105	63	-12	98
CC1=NN(c2ccccc2)C(=O)/C1=C/c1cn(CC(O)CN2CCCCC2)c2ccccc12 (stereo not given)	88	49	x	97
O=c1c(=O)n(Cc2ncc(-c3ccccc3)o2)c2cc(Cl)ccc2n1Cc1ccccc1	114	101	5	x
COC(=O)COc1ccc(/C=C2\C(=O)NC(=S)N(c3ccc(OC)cc3)C2=O)cc1OC	x	x	-25	103
Cc1c(C(=O)Nc2cccc(C(F)(F)F)c2)sc2nc3n(c(=O)c12)CCC3	119	75	-16	97
COc1ccc2c(c1)c1c(c(=O)n(-c3ccc(OC)c(OC)c3)c(=O)n1Cc1ccc(F)cc1)n2C	106	88	x	104
CCc1ccc(NC(=S)N(Cc2ccco2)C2CCN(C(C)C)CC2)cc1	101	95	-6	102
Cc1csc(NC(=O)CSCC(=O)O)c1-c1nc2ccccc2s1	82	28	-19	100
O=C(NCCc1nc2cccnc2n1Cc1ccccc1)Nc1ccccc1Cl	x	x	-7	144
CC(C)N1CCc2[nH]c(=S)[nH]c(=O)c2C1	98	95	-1	102
O=C(Nc1nnc(CCS(=O)(=O)c2ccc3ccccc3c2)s1)c1ccc([N+](=O)[O-])cc1	x	x	-18	101
CCN1CCN(Cc2c(NC(=O)c3cccs3)sc(C)c2C)CC1	x	x	-35	104
COc1cc(Cl)c(C)cc1NC(c1ccccc1)c1nnc(-c2ccccc2Cl)o1 (stereo not given)	101	89	-10	99
O=C(NCc1ccccc1)c1cccc2c1C(=O)N(C1CCCCC1)C2	99	94	x	99
c1ccc(-c2ccc(Oc3cnccn3)cc2)cc1	99	109	1	x
Cc1cccc(NC(=O)N2CCCC2C(=O)Nc2ccccc2)c1 (stereo not given)	115	105	9	97
O=S(=O)(c1ccccc1C(F)(F)F)N1CCN(S(=O)(=O)c2ccccc2C(F)(F)F)CC1	101	103	-3	99
Cc1ccc(NC(=O)c2c(C)oc3c2C2=NCCN2C=N3)cc1F	98	101	x	103
CCOC(=O)c1nc(Nc2ccccc2F)c2ccccc2n1	x	x	-46	105
COc1ccc(C/C(N)=N/OC(C)=O)cc1OC	99	87	-9	102
Cc1ccccc1OCCC(=O)NCCc1ccccn1	92	103	4	x
C=CCn1c(Cc2nc3ccccc3[nH]2)n[nH]c1=S	98	98	-57	103
Cc1csc(=O)n1CCSc1nnc(-c2cccs2)n1-c1ccccc1	84	88	-14	x
O=c1cc(CN2CCN(S(=O)(=O)c3ccc(Cl)cc3)CC2)nc2sc(-c3ccccc3F)nn12	89	99	x	104
Cc1ccc(N2CC(C(=O)OCC(=O)c3ccc[nH]3)CC2=O)cc1 (stereo not given)	97	96	-14	x
COc1ccc(N2C(=O)CCC(C(=O)N3CCN(c4ccccc4)CC3)C2c2ccc(F)cc2)cc1 (stereo not given)	96	95	-9	101&95
CCCn1c(=O)c(C#N)cn(-c2ccccc2C)c1=O	95	87	-32	110
CCOC(=O)c1ccc(NC(=O)Nc2cccc(OCc3cc(=O)n4ccc(C)cc4n3)c2)cc1	80	88	x	85*
COc1ccc(CNC(=O)Cn2c(=O)ccc3cc(S(=O)(=O)N4CCCC4)ccc32)cc1	87	92	x	100
Cc1ccc(CCN2CC(C(=O)NCCc3ccccc3)CC2=O)cc1 (stereo not given)	94	85	5	102
(next part)
SMILES	Sa growth inh	Sa growth inh second temp	HCMV NEC inh	GIV Gai3 FP
CCOC(=O)c1c(NC(=O)CN(CC)CC)sc2c1CCC/C2=N\O	98	96	-44	100
O=C1CSCC(=O)N1c1ccccc1N1CCOCC1	112	98	1	106
NC(=O)CSc1nc2sc3c(c2c(=O)n1-c1ccccc1)CCCCC3	x	x	-22	106
CCc1ccc(NC(=O)C23CC4CC(CC(C4)C2)C3)cc1	90	86	-20	x
Cc1ccc2sc(N3CCN(C(=O)CCS(=O)(=O)c4ccc(F)cc4)CC3)nc2c1C	112	97	x	98
O=C(Cc1ccccc1)Nc1noc2ccccc12	x	x	-23	96
N#Cc1ccc(S(=O)(=O)c2ccc(Cl)cc2)nc1	101	57	-3	99
O=S(=O)(c1ccc(F)cc1)c1nc(-c2ccc(Cl)cc2)oc1NCC1CCCO1 (stereo not given)	x	x	-16	103
CC(c1nnc(SCc2ccc(C#N)cc2)n1-c1ccc(Cl)cc1)N1CCCCC1 (stereo not given)	95	96	-3	x
CCOc1cc(C2c3c(oc4ccc(F)cc4c3=O)C(=O)N2CCc2ccc(OC)cc2)ccc1O (stereo not given)	93	87	x	98
COc1ccc(C(=O)NCc2nnc(SCC(=O)c3ccccc3)n2C)cc1	116	102	-12	102
